# Bioassay records (PubChem BioAssay)
# FGF22 binding: binders of recombinant human FGF22 by thermal shift. AID 651658. SYPRO orange fluorescence; percent of sucrose octasulfate shift, DMSO zero. 340,000 compounds, 1.5% hits. Q9HCT0. calls only at 9.99 µM;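 active means melting point raised past a set limit in the mean and every replicate; three in four hits are not shown here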
# Target sequence (Q9HCT0 whole entry, looked up): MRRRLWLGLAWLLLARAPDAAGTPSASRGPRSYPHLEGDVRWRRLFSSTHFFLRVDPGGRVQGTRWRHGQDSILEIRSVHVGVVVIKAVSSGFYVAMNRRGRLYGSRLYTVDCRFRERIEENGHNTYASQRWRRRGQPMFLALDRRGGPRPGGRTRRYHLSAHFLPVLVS
# Ecoli growth: blocks Escherichia coli growth; 330,000 compounds, 0.21% hits; AID 1053175; OD600 absorbance (test concentration not listed); OD600, 23 h; hits give low values;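 active means OD600 absorbance below the run mean of sample wells minus 3.6 SD, in any replicate, cut at about 0.56 in these data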;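 further: stock transfer was 300 nL into about 60 µL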
# ALR H2O2 inh: blocks human ALR sulfhydryl oxidase activity; 290,000 compounds, 3.8% hits; AID 485317; P55789; purified ALR, DTT oxidation, H2O2 HRP-luminol luminescence; inhibition, % (concentration not given with the values);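 active means mean and each replicate at 75% or more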;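 further: stock transfer was 7.5 nL into about 7.5 µL; 0% = neutral wells and 100% = wells with inactivated enzyme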
# Target sequence (P55789 whole entry, looked up): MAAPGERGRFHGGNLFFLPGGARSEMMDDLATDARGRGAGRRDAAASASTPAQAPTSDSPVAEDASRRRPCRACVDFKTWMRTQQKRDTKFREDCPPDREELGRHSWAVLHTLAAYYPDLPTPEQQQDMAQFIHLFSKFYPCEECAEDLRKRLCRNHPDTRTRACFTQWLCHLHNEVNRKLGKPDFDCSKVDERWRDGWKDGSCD
# UCH37 DUB inh: inhibitors of human deubiquitinating enzyme UCH37. 330,000 compounds, 0.33% hits. AID 588478. purified proteasome/UCH37, Ub-AMC cleavage fluorescence. inhibition, % (concentration not given with the values). Q9Y5K5;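 active means mean of two replicates above 20%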;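 further: 0% = compound-free wells with enzyme and 100% = wells lacking proteasome; stock transfer was 100 nL into about 20 µL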
# Target sequence (Q9Y5K5 whole entry, looked up): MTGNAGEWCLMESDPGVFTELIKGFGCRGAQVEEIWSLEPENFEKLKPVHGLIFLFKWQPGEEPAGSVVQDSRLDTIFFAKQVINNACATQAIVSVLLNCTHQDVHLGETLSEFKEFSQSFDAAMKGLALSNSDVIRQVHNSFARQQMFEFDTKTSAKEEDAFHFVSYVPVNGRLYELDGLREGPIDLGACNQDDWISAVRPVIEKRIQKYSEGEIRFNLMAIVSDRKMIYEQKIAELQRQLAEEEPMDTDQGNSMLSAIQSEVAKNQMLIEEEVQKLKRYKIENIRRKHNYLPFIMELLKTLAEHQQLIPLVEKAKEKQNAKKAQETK
#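 Material: Human UCH37 enzyme supplied as purified proteasome complex | Schedule: 30 min compound-proteasome preincubation then 25 min substrate reaction, room temperature | Detection: AMC fluorescence from Ub-AMC cleavage, excitation 355 nm, emission 460 nm | Benchmarks: Wells without proteasome as full block, compound-free enzyme plus substrate as uninhibited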
# LANA-H2B inh: blocks KSHV LANA binding to histone H2A/H2B; 320,000 compounds, 0.6% hits; AID 2629; cell-free LANA-H2A/H2B peptide, fluorescence polarization; inhibition, % (test concentration not listed); Q9QR71; in the data active means inhibition mostly above about 10%, no sharp cut-off; inactive means mostly below about 6.7%;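 further: stock transfer was 7.5 nL into about 10 µL; 0% = median of vehicle wells and 100% = median of positive control wells; one replicate is shown; the record names a cut of 25% in any replicate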
# HNF4A DNA FP: change in binding of human HNF4 alpha to DNA. activity change, % at 10 µM. HNF4a-FITC DNA binding, fluorescence polarization, 1 h. AID 1224865. P41235. 360,000 compounds, 0.3% hits; in the data active means activity change above about 30%, passing the limit was not always enough;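 further: controls were the assay level and a saturating level of protein; the project sought stronger binding though the title names inhibitors; some compounds called inactive have numbers as strong as hits; positive values seem to mean higher polarization but the record does not say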
# B2AR ag: human beta-2 adrenergic receptor agonism by FAP. 340,000 compounds, 0.43% hits. response, % (test concentration not listed). Am2.2-beta2AR cells, FAP receptor internalization, flow cytometry; reference of the scale not given here. P07550. AID 504454;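 active means response above a set limit, near 3 SD of response in nonfluorescent compounds, cut at about 42% in these data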;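 further: stock transfer was 100 nL into about 11 µL; a reference agonist was the positive control; negative values mostly stem from fluorescent compounds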
# * = called active by the depositor; i = inactive; . = no result given. The list is partial; the hit share may differ from the screen's.
# Results follow in this order: FGF22 binding	Ecoli growth	ALR H2O2 inh	UCH37 DUB inh	LANA-H2B inh	HNF4A DNA FP	B2AR ag
CCCNS(=O)(=O)c1ccc(OCC(=O)OC)cc1
  .	0.72	-6	2.6	0.4	3.3	-4
CCn1c(SCC(=O)NNC(=O)c2ccc(OC)cc2)nnc1C1CC1
  i	0.65	-2	-1.0	-1.9	0.8	-8
O=C(NCC(c1cccnc1)N1CCN(c2ccccc2F)CC1)c1ccccc1 (stereo unspecified)
  i	0.72	-24	3.8	2.4	2.1	-9
COc1ccc(C2=CC(c3ccco3)n3ncnc3N2)cc1 (stereo unspecified)
  .	0.66	.	-325	.	-86	10
O=[N+]([O-])C(=C1Nc2ccccc2N1)C(Cl)=C(Cl)Cl
  i	0.64	39	15	3.8	3.4	-4
Cc1c(NC(=S)NC(NC(=O)C(C)C)C(Cl)(Cl)Cl)c(=O)n(-c2ccccc2)n1C (stereo unspecified)
  .	0.72	.	1.1	.	-0.7	2
C/C(=C(/NC(=O)c1ccccc1)C(=O)O)c1ccco1
  i	0.68	36	4.2	0.6	3.4	9
COc1cc(-c2ncc3ccccn23)cc(OC)c1OC
  .	0.74	.	-17	-2.4	6.0	0
COc1ccc(NCC(=O)N/N=C/c2ccc3c(c2)OCCO3)cc1
  .	.	.	.	2.8	3.9	-9
CCOc1cc(-c2ccccc2)nc(N)n1
  .	0.69	2	3.5	-2.4	-0.2	3
N/C(Cn1cncn1)=N\NC(=O)c1ccc(Cl)cc1Cl
  i	.	-7	1.7	-11	-4.1	-1
COc1ccc(N(CC(=O)Nc2cc(OC)ccc2OC)S(=O)(=O)c2c(C)nn(C)c2C)cc1
  i	0.78	-25	2.4	0.7	-5.0	5
CCC(C)c1ccc(OCCCCN2CCOCC2)cc1 (stereo unspecified)
  .	0.72	6	2.5	-4.0	2.5	-1
Cc1cccc(OCC(=O)Nc2ccccc2C(F)(F)F)c1
  i	0.71	1	-1.2	-3.2	-3.3	6
Cc1cnc(C(=O)OCC(=O)c2c[nH]c3ccccc23)cn1
  i	0.64	-5	2.9	-0.1	6.0	14
O=C(c1nc(SCc2ccc([N+](=O)[O-])cc2)n2ccccc12)C(F)(F)F
  i	0.68	41	3.8	1.8	4.4	-12
CCOc1cccc2cc(C(N)=O)c(=NCc3ccccc3)oc12
  .	0.67	-4	-0.4	-0.4	6.7	2
O=S1(=O)N=C(N(CCO)/N=C/c2ccccc2F)c2ccccc21
  i	.	-6	.	-1.2	1.2	8
CCOC(=O)c1[nH]c(C)c(C(=O)OCC(=O)N2CCc3ccccc32)c1C
  i	0.71	-2	1.0	2.3	-2.6	-4
COc1cc(/C=C(\C#N)C(=O)Nc2cccnc2)ccc1OC(C)C
  .	0.67	.	7.1	-1.3	-1.1	-3
O=C(CN1CCSCC1)N/N=C/c1ccc(Cl)cc1
  i	.	4	.	0.0	.	.
COc1ccc(OC)c(/C=N/NC(=O)CN2CCSCC2)c1
  .	.	-12	.	-4.5	-2.1	5
Cc1ccc(S(=O)(=O)N2CCOCC2)cc1NC(=O)c1cc2ccccc2oc1=O
  i	0.65	-3	2.5	-11	-1.1	13
COc1ccc2cc3cc(C(=O)N4CC(C)CC(C)C4)oc3nc2c1 (stereo unspecified)
  .	0.65	-3	-136	-1.3	-0.5	18
CCOC(=O)c1cc(-c2ccc(Cl)cc2)nc2c1c(=O)[nH]c(=O)n2CCOC
  i	0.71	1	-145	5.6	-4.2	-8
Cc1cc(=O)oc(C)c1C(=O)NCC1COc2ccccc2O1 (stereo unspecified)
  i	0.67	4	6.8	1.8	2.8	-2
O=C(C1CCCN(S(=O)(=O)c2cccc3nonc23)C1)N1CCN(c2cccc(Cl)c2)CC1 (stereo unspecified)
  .	0.73	-19	-1.1	4.1	6.0	8
CCCC(=O)Oc1ccc(N(C(=O)CCC)S(=O)(=O)c2cccc([N+](=O)[O-])c2)cc1
  .	.	-4	.	3.1	-3.1	-21
CN(C)S(=O)(=O)c1cc(C(=O)Nc2ccccc2C(=O)NC2CC2)ccc1Cl
  i	0.69	.	3.8	.	-3.4	-2
c1ccc(-c2ccccc2OCCOCCN2CCc3ccccc3C2)cc1
  i	0.68	-7	-1.3	-2.1	-2.1	10

# Carrying on.
# Results follow in this order: FGF22 binding	Ecoli growth	ALR H2O2 inh	UCH37 DUB inh	LANA-H2B inh	HNF4A DNA FP	B2AR ag
COc1ccc(NS(=O)(=O)c2cc3c4c(c2)CCN4C(=O)CC3)cc1OC
  .	0.64	-23	2.8	3.0	-2.5	3
CSc1ccc(S(=O)(=O)N2CCC(C(=O)Nc3cccnc3)CC2)cc1
  i	0.7	-8	6.1	1.2	-1.1	6
CCCCN(C)CCCNC(=O)c1cc(=O)[nH]c2ccc(S(=O)(=O)N3CCCCC3C)cc12 (stereo unspecified)
  i	0.67	-1	2.4	0.0	-0.9	2
C=C(C)CC(Nc1ccc(OC)cc1)c1ccco1 (stereo unspecified)
  i	0.68	53	2.9	-9.3	-0.7	6
CN1CCN(c2ccc(NC(=O)c3ccc(-c4ccccc4F)o3)cc2)CC1
  i	0.61	.	6.1	-1.1	2.6	26
CN(c1ccccc1)S(=O)(=O)c1cccc(NC(=O)CCNC(=O)c2ccccc2)c1
  i	0.71	.	3.2	3.8	-1.9	4
CC(C)C1/C(=N/O)CC(c2ccccc2)NC1c1ccccc1 (stereo unspecified)
  i	.	.	.	-3.4	-0.2	12
Cc1c(C(=O)O)oc2ccc(S(=O)(=O)N3CCCCC3C(=O)O)cc12 (stereo unspecified)
  i	0.74	12	9.0	1.1	-0.7	-3
Cc1ccc(NC2CCCN(C(=O)CCC(=O)c3ccccc3)C2)cc1C (stereo unspecified)
  i	0.69	.	1.2	.	3.0	3
COc1ccc([N+](=O)[O-])cc1NC(=O)CCCOc1ccccc1
  .	0.7	-2	6.8	-1.1	0.2	0
Cc1ccccc1NS(=O)(=O)c1cc2c(cc1C)N(C)CCO2
  i	0.78	98*	3.1	17	1.3	4
O=C(NCCc1c[nH]c2ccccc12)C(=O)NCC(c1ccco1)N1CCN(c2ccc(F)cc2)CC1 (stereo unspecified)
  i	0.75	.	-2.5	.	1.3	-2
O=[N+]([O-])c1ccc(Cl)c(/C=N/N2CCN(Cc3ccccc3)CC2)c1
  .	.	-17	.	-1.6	4.0	-7
O=[N+]([O-])c1cccc(-c2nc(-c3cccs3)c(-c3cccs3)[nH]2)c1
  .	0.67	2	4.9	0.2	15	-4
FC(F)(F)c1cccc(Nc2ncnc3ccccc23)c1
  .	0.71	-5	-21	-1.9	2.0	18
S=C(Nc1ccccc1)Nc1ccc(Cl)cn1
  .	0.73	1	1.5	0.4	2.4	-6
CC(=O)Nc1ccc(NC(=O)CCC(=O)OCC(=O)c2ccc(F)cc2)cc1
  i	0.71	4	1.1	-2.1	1.5	3
COCCOC(=O)c1c(C)nc(SCC(=O)Nc2cccc3ccccc23)c(C#N)c1-c1ccco1
  .	0.74	-9	-1.6	2.3	-1.4	11
COc1ccc(Cl)cc1NC(=O)CSc1nc(N2CCOCC2)nc(N2CCOCC2)n1
  i	0.71	-14	-0.4	-1.2	-0.6	6
O=C(c1ccoc1)N1CCC2(CC1)Oc1ccc(Cl)cc1C(=O)C21CC(c2ccc(Cl)cc2)=NO1 (stereo unspecified)
  .	0.65	-13	1.2	0.7	0.2	-10
COc1ccc(S(=O)(=O)Nc2c(NC3CCCCC3)c3ccccc3oc2=O)cc1
  i	0.65	10	-1.5	-0.8	-3.0	7
COc1ccc(C(O)P(=O)(OC(C)C)OC(C)C)cc1OC (stereo unspecified)
  i	0.72	.	0.3	.	1.8	21
COC(=O)c1ccc(C(=O)N2CCCC(Nc3ccc(F)c(F)c3)C2)cc1 (stereo unspecified)
  i	0.65	8	4.6	-0.6	-1.6	3
CCc1c(C)nc2cc(-c3ccc(OC)c(OC)c3)nn2c1NCC1CC1
  .	.	.	.	-3.0	-0.1	18
CCCCC(CC)CN1C(=O)/C(=C/c2ccncc2)SC1=S (stereo unspecified)
  .	0.74	.	0.8	.	2.0	8
Cc1cc(C)c(NC(=O)CN(C2CCCCC2)C2CCCCC2)c(C)c1
  i	0.66	-7	0.1	2.7	-2.4	7
Cn1c(SCC(=O)N2CCCCCC2)nc2c([nH]c3ccccc32)c1=O
  .	0.7	.	-35	5.2	1.7	-12
Cc1ccc(OCCC(=O)OC(C)C(=O)NC2CC2)cc1 (stereo unspecified)
  i	0.67	-1	2.0	4.0	2.9	4
COc1cc(/C=C/C(=O)O)cc(S(=O)(=O)Nc2ccc3nc(C)sc3c2)c1OC
  i	0.65	-8	2.0	-5.0	-1.6	-5
COc1ccc(-c2ccc(S(=O)(=O)n3nc(OC(=O)c4cccs4)cc3N)cc2)cc1
  i	0.71	-7	3.4	-3.6	-0.7	0

# Record cards, from the list above. Screens in order: FGF22 binding, Ecoli growth, ALR H2O2 inh, UCH37 DUB inh, LANA-H2B inh, HNF4A DNA FP, B2AR ag
# CCCCC(CC)CN1C(=O)/C(=C/c2ccncc2)SC1=S (stereo unspecified) is listed as ., 0.74, ., 0.8, ., 2.0, 8
# CC(=O)Nc1ccc(NC(=O)CCC(=O)OCC(=O)c2ccc(F)cc2)cc1 is listed as i, 0.71, 4, 1.1, -2.1, 1.5, 3
# Cc1ccc(OCCC(=O)OC(C)C(=O)NC2CC2)cc1 (stereo unspecified) is listed as i, 0.67, -1, 2.0, 4.0, 2.9, 4

# Next part:
# Results follow in this order: FGF22 binding	Ecoli growth	ALR H2O2 inh	UCH37 DUB inh	LANA-H2B inh	HNF4A DNA FP	B2AR ag
CS(=O)(=O)N1CCc2ccc(NC(=O)C3CCCO3)cc2C1 (stereo unspecified)
  i	0.67	-10	0.5	-7.6	-0.1	1
COc1ccc(C2(c3ccc(OC)cc3)NC(=O)N(CC(=O)NC3(C#N)CCCCC3)C2=O)cc1
  i	0.7	-1	2.9	2.9	1.3	1
COc1ccc(-c2cn3c(C)c(C(=O)Nc4ccncc4)sc3n2)cc1
  i	0.77	8	-29	0.5	3.9	19
Cc1cc(OCc2cc(C(=O)N(C)Cc3nonc3C)no2)cc(C)c1Cl
  i	0.69	-8	2.1	-0.3	1.1	7
COc1ccc(-n2c(SCC(N)=O)nnc2-c2ccccc2F)cc1
  .	0.66	3	0.8	3.3	0.6	-11
CCOCC(=O)Nc1c(C(=O)Nc2ccc(OC)cc2OC)oc2ccccc12
  .	0.69	-12	-298	3.4	1.0	-3
O=C(CCc1ccccc1)OCC(=O)c1cccc([N+](=O)[O-])c1
  i	0.7	-3	4.1	1.2	5.0	5
Nc1ccc(SCCN2C(=O)c3ccccc3C2=O)cc1
  .	0.67	58	7.1	1.8	0.4	-1
CCOC(=O)CC1C(=O)NCCN1C(=O)c1c(Cl)cccc1Cl (stereo unspecified)
  i	0.64	.	-3.2	6.1	-1.3	0
Cc1ccc(/C(O)=C/C(=O)C(=O)NC23CC4CC(CC(C4)C2)C3)cc1
  i	0.71	2	0.7	1.0	0.8	-2
CCn1c(SCc2ccccc2)nc2cc(S(N)(=O)=O)ccc21
  i	0.69	-2	4.7	3.5	-0.8	0
CC(C)c1ccc(NC(=O)Cn2ncc3ccccc32)cc1
  i	0.68	14	0.9	0.2	-0.9	-8
CCOC(=O)C[C@H]1c2cc(C(F)(F)F)ccc2S(=O)(=O)N1Cc1ccccc1
  i	.	51	4.8	6.8	8.5	1
CC(C)(C)NC(=O)C1CC(=O)OC12CCCCC2 (stereo unspecified)
  .	0.72	1	0.5	3.9	-0.9	-2
CC1CCCCC1NCC(=O)Nc1ccccc1C(=O)Nc1ccccc1 (stereo unspecified)
  i	0.66	.	0.2	4.4	-2.9	5
O=C(NCCO)C1CCN(C(=O)c2ccc(-c3ccccc3)cc2)CC1
  i	0.69	-28	3.0	-4.1	1.4	0
CN(Cc1cccs1)C(=O)c1ccc(S(=O)(=O)NCc2ccco2)cc1
  i	0.65	-2	1.0	-1.7	0.2	2
COc1ccc(S(=O)(=O)N2CCC(C(=O)N3CCCC3)CC2)cc1
  .	0.71	-7	-0.5	2.3	2.5	0
